High-throughput results as filed in PubChem BioAssay.
Six1-Eya2 inh – blocks human Six1 binding to Eya2. Q15475+O00167. activity change, % (test concentration not listed). 360,000 tested, 0.56% active. AID 651725. AlphaScreen GST-Six1/His-Eya2 binding, biochemical; stronger effect = lower value; control for the full effect not named in the record; in the data active = activity change below about -65%; inconclusive = about -30% to -65%; inactive = above about -30%; further: on the % scale 0 is the no-effect control and ±100 the full control effect; compound concentration not given in the record
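GST-Six1 + His-Eya2 (5X stock: 250/500 nM); Tris pH 8.0, 300 mM NaCl, 0.05% BSA, 0.02% Tween 20; GSH donor/Ni acceptor beads; 1 h 37 °C dark; AlphaScreen readout.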
CtBP-E1A inh – inhibitors of CtBP/E1A interaction | AlphaScreen GST-E1A/His-CtBP binding, 1536-well; stronger effect = lower value; control for the full effect not named in the record | activity change, % (concentration not given with the values) | 340,000 tested, 0.49% active; in the data active means activity change below about -65%; inconclusive means about -30% to -65%; inactive means above about -30%; further: on the % scale 0 is the no-effect control and ±100 the full control effect
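Steps: dispense buffer (Tris pH 8.0, NaCl 300 mM, TCEP 1 mM, BSA, Tween 20); add 5X protein mix (GST-E1A, His-CtBP, 125 nM each); pin 23 nL compound; 2 h at 37 °C, dark; add 5X beads (50 ug/mL); 1 h; read.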
TRPML1 agonist – activates the human TRPML1 channel. Q9GZU1. 410,000 tested, 0.12% active. TRPML1-expressing cells, Ca2+ dye fluorescence, FDSS; host cell line not named in the record; reference of the full effect not given here. AID 624414. activation, % (no concentration beside the values); in the data active = activation above about 50%; inconclusive = about 30% to 50%; inactive = below about 30%; further: 0% is about no effect; the text of the record puts the active cut at 80%
Target sequence (Q9GZU1 whole entry, looked up): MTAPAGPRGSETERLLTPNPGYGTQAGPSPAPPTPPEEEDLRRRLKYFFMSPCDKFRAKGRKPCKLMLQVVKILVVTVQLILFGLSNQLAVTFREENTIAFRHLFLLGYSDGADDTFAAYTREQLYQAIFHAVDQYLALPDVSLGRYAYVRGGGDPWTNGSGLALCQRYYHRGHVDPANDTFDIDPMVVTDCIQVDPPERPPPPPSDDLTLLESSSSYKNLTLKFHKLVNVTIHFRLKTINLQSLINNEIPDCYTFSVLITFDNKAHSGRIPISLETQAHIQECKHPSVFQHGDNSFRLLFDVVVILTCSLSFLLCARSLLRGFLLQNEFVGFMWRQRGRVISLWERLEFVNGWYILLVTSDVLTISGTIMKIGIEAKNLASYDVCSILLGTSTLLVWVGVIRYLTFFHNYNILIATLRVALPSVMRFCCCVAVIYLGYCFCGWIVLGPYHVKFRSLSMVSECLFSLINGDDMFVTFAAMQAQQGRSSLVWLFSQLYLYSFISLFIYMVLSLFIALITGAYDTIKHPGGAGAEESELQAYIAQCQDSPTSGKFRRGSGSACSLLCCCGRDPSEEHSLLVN
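Tetracycline-induced TRPML1-DL cells are seeded and incubated overnight before loading with a no-wash Ca2+ dye and quencher. Agonist activity is taken from the 110 s fluorescence read following compound pin-transfer on an FDSS, before EC80 54-4 challenge.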
D2 agonist – human D2 receptor agonism in beta-arrestin assay. P14416. DiscoveRx PathHunter D2 beta-arrestin, luminescence, 90 min; 100% = 57 uM dopamine signal. activation, % (concentration not given with the values). 360,000 tested, 0.084% active; in the data active = activation above about 40%; inconclusive = about 15% to 40%; inactive = below about 15%; further: compound concentration not given in the record; the text of the record calls up to 30% inactive
Target sequence (P14416 whole entry, looked up): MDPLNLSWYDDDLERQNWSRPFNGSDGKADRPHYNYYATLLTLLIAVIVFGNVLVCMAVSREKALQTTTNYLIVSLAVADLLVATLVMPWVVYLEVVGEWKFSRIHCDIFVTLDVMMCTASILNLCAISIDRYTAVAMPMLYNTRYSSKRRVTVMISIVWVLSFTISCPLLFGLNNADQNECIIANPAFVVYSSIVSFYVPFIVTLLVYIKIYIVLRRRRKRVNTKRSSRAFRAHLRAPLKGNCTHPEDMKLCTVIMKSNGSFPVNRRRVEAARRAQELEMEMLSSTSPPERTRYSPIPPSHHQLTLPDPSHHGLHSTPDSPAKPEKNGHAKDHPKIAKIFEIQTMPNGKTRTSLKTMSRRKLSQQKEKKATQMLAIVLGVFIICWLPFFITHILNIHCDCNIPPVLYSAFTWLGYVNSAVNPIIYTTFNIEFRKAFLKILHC
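Agonist mode: compounds alone added to overnight-plated D2 PathHunter cells for 90 min at 37 C, with 57 uM final dopamine (EC100) defining full response. Beta-arrestin recruitment detected by chemiluminescent reagent, read after 1 h at ambient temperature.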
PINK1 modulator – changes PINK1 expression | PINK1 immunofluorescence, high-content cytometry, 24 h | Potency, µM (series often up to 76.6 µM), without a hit: at the highest dose activation (PINK1 increase), usual class: activators | 410,000 tested, 0.2% active; active = well fitted activation curve with a large enough effect; inconclusive = small, poorly fitted or top-dose-only effect; inactive = flat fitted curve, though single readings scatter; cell line not stated here;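 further: potency means the concentration at half of the fitted maximal effect; % of control where 0% means no effect; nearly all actives have a fitted effect of over 65% in size; a mitochondrial uncoupler was the plate control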
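Fluorescence from anti-PINK1 antibody, together with nuclear and cell stains, was scanned on a laser-scanning cytometer. Before staining, stable-line cells were incubated 24 hours with compounds at 5 concentrations; primary antibody 12 h at 10 degrees C.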
TRPML1 blocker – blocks the human TRPML1 channel | Q9GZU1 | TRPML1-inducible cells, Ca2+ dye fluorescence, FDSS; stronger effect = lower value; inhibition of EC80 agonist-evoked calcium signal | activity change, negative = inhibition, % (concentration not given with the values) | 390,000 tested, 0.02% active | AID 624415; in the data active means activity change below about -50%; inconclusive means about -30% to -50%; inactive means above about -30%;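 further: stimulus is agonist 54-4 at its EC80 concentration; on the % scale 0 is the no-effect control and ±100 the full control effect; compound concentration not given in the record; the text of the record puts the active cut at -80%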
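Tet-induced TRPML1-DL cells loaded with Ca8 no-wash calcium dye were read kinetically on FDSS. Compound addition was followed by EC80 agonist 54-4 (4 uM final); inhibition was read over 110 s.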
The depositor's hits bear a star; u = inconclusive; x = not tested or not shown; [ ] = remark or other dose. Rows are unselected. Share with any hit: about 1%.

Values run as follows: Six1-Eya2 inh, CtBP-E1A inh, TRPML1 agonist, D2 agonist, PINK1 modulator, TRPML1 blocker
- COc1cc(C2C(C#N)=C(C)NC3=C2C(=O)c2ccccc23)cc(OC)c1OC (configuration not stated)
 : -8, 3, 0.2, -5.5, u, 8
- O=C(NCc1ccc(C(F)(F)F)cc1)c1cccc2c(-c3cccnc3)coc12
 : -5, -16, -0.9, 5.0, 1.2%, x
- Cc1ccc(C(=O)NN2CCOCC2)cc1[N+](=O)[O-]
 : 1, 4, 0.0, 3.9, 0.1%, 15
- CC(=O)N1[C@@H]2CC3C4CC=C5C[C@@H](O)CC[C@]5(C)C4CC[C@]3(C)[C@@]21C(C)=O (some centres not stated)
 : 4, 7, 0.2, 0.0, 0.3%, -10
- CCc1ccccc1NC(=S)N(CCCN1CCN(C)CC1)Cc1cccs1
 : -3, 14, -0.2, -6.3, -0.6%, 38
- COc1cc(/C=C2\SC(c3ccccc3)=NC2=O)cc(Cl)c1O
 : -8, -10, -0.6, -6.0, -0.7%, 2
- COc1ccc(-n2c(C)c(C(C)=O)c3cc(OC(=O)c4ccc(C)cc4)ccc32)cc1
 : x, x, -0.3, x, -0.6%, 5
- CCOC(=O)C1=C(N)OC2=C(C(=O)CCC2)C1c1ccc2c(c1)OCO2 (configuration not stated)
 : -1, -2, 1.2, -1.2, 1.0%, -2
- CC(C)Cc1nc(N2CCCCC2)c(C#N)c2c1CCC2
 : 25, 12, -0.4, 1.3, 1.8%, -11
- Cc1ccc(OCC(=O)NCc2ccccc2)c([N+](=O)[O-])n1
 : 5, -2, -0.2, -4.8, 2.0%, 41
- O=[N+]([O-])c1cccc(-c2c(-c3ccccc3)ncc3cc(F)ccc23)c1
 : -27, -19, 2.7, -1.4, 0.0%, 62
- COC(=O)CC(NC(=O)c1ccco1)c1cccc2ccccc12 (configuration not stated)
 : 0, 1, -0.4, -0.6, -1.4%, 17
- CC(=O)Nc1ccc(C(=O)OCc2ccc(Cl)cc2)cc1
 : -1, 3, 0.6, -2.3, 0.5%[38.3 µM], 11
- Cc1cc(C(=O)CCl)c(C)n1-c1cccc([N+](=O)[O-])c1
 : -27, 10, -1.4, -1.3, -3.9%, 12
- COc1ccc(Cl)cc1N(CC(=O)Nc1ccc2c(c1)OCO2)S(C)(=O)=O
 : 0, 0, 1.6, -2.2, 0.2%, 3
- CCOC(=O)c1oc2ccccc2c1NC(=O)CN1CCN(C)CC1
 : 5, 5, 0.9, -6.2, 1.2%, -11
- CC(C)(C)c1ccc(NC(=O)COC(=O)C2CCCC2)cc1
 : 5, x, 0.2, -3.6, -0.4%, 8
- COc1ccc(C(OC(=O)c2ccco2)C(=O)NCc2ccco2)cc1 (configuration not stated)
 : -1, -1, 0.5, -2.8, -1.7%, 16
- CCOc1cc(C(=O)N(CC)CC(=O)Nc2c(F)cccc2F)ccc1OCC(=O)N1CCCCC1
 : 3, -2, 0.0, -0.7, 1.6%, 9
- Cc1ccccc1CNC(=O)c1ccccc1N(C)S(=O)(=O)c1ccccc1
 : 14, -12, -0.5, 2.4, 1.8%, -3
- Oc1ccc(-c2nc3cnccn3c2Nc2ccc3c(c2)OCCO3)cc1
 : -12, 1, 0.2, 8.2, 4.3%, 8
- S=C(NCCN1CCOCC1)Nc1cccc2ccccc12
 : -1, 4, -0.3, 0.7, 0.0%, 7
- Cc1cc(NC(=O)COC(=O)COc2ccc3c(c2)CCC3)no1
 : 13, -1, 2.7, 0.2, 2.5%, 18
- CC(=O)N(Cc1cccs1)Cc1cc2ccc(C)c(C)c2nc1Cl
 : 0, x, 1.9, -3.1, 2.8%, 1
- CC1=C(C(=O)N2CCCCCC2)CC(CC(=O)NC2CCCC2)C(=O)N1CCC1=CCCCC1 (configuration not stated)
 : 0, 3, -0.8, x, 1.2%, x
- CCn1c(CNC(=O)c2ccccc2Br)nnc1SCC(=O)NC1=NCCS1
 : -1, 4, -0.1, -5.4, 0.2%, -5
- CCn1c(SCC(=O)NCc2ccc3c(c2)OCO3)nc2c(c1=O)SCC2
 : 2, 11, 1.9, 2.4, -0.5%, 3
- FC(F)(F)c1cccc(NCc2cn3cccnc3n2)c1
 : 16, 0, 0.4, -1.4, 0.3%, -8
- COc1ccccc1NS(=O)(=O)c1ccc(Cl)c(NC(=O)CN2C(=O)c3ccccc3C2=O)c1
 : -1, -12, 0.6, 1.6, -0.1%, -10
- O=C(NC(=O)c1cccc(Cl)c1)OC[C@@H]1CCCN2CCCCC12 (some centres not stated)
 : 3, 8, -0.4, -1.7, 2.3%, 9
- Cc1[nH]n2c(=O)cc(-c3ccc([N+](=O)[O-])cc3)nc2c1-c1ccccc1
 : -22, -11, -1.0, -3.7, -1.4%, 4
- Cc1ccc(S(=O)(=O)NC(C)(C)CSc2ncccn2)cc1
 : 1, 0, 0.7, -1.0, 0.2%, 2
- CC1CCc2c(sc(NC(=O)c3noc4c3CCCC4)c2C(N)=O)C1 (configuration not stated)
 : 5, 7, x, -2.0, 2.6%, x
- Cc1nn(CC(=O)Nc2ccc(N(C)C)cc2)c(C)c1[N+](=O)[O-]
 : 0, -15, -0.1, -4.7, 4.4%, -16
- COc1ccc(CNC(=O)CCS(=O)(=O)Cc2cccc(Cl)c2)c(OC)c1
 : -2, 3, 0.2, -3.8, 8.6%, -14
- Cc1ccc(C)c(NC(=O)C(OC(=O)c2ccc(NC(=O)CC#N)cc2)c2ccccc2)c1 (configuration not stated)
 : -8, 6, -0.6, -5.9, u, -17
- CC1CCCCN1CC(=O)NCc1ccc2c(c1)OCO2 (configuration not stated)
 : 1, -5, -0.2, -3.8, 0.9%, 5
- Cc1ccc(NC(=O)Cn2nc(C(F)(F)F)c3c2CCCC3)cc1C
 : x, x, 0.1, x, 6.3%, -8
- Cn1c(-c2ccc3c(c2)OCO3)cnc1NCc1cccc(Cl)c1
 : -18, -25, 0.0, -5.1, 13%[38.3 µM], -5
- CC(=O)Nc1cc(-c2ccc(C(=O)N3CCOCC3)cc2)cn2c(-c3ccc(F)c(Cl)c3)cnc12
 : -13, -10, -0.6, -2.0, 7.9%, x
- COc1ccc(/C=C(/NC(=O)/C=C/c2ccccc2)C(=O)N2CCOCC2)cc1
 : 6, -21, 0.5, -0.9, -1.1%, 22
- CCC(=O)OCCNc1cc(Sc2nc3ccccc3s2)c2nonc2c1[N+](=O)[O-]
 : -5, 0, 4.6, -4.9, u, 8
- O=[n+]1cc(-c2ccc(Cl)cc2)n([O-])c2c1CCC2
 : 0, 2, -0.2, -0.9, 1.2%, 3
- CSc1ccc(S(=O)(=O)NCC(=O)OCC(=O)N2CCCCC2C)cc1[N+](=O)[O-] (configuration not stated)
 : 0, 4, -0.7, -2.5, 3.6%, 2
- O=C1CC(c2ccccc2)n2ncnc2N1 (configuration not stated)
 : 1, 8, -0.6, -1.7, 54%[38.3 µM], 25
- O=[N+]([O-])c1ccccc1-c1ccc(C(=S)N2CCCC2)o1
 : -13, 0, 4.6, 6.9, 1.8%, -5
- Cc1ccc(NC(=O)c2cc([N+](=O)[O-])ccc2N2CCOCC2)cc1S(=O)(=O)N1CCOCC1
 : -19, -1, 0.1, -8.2, 4.3%, -11
- COc1ccc(/C=N/NC(=O)c2nonc2N)cc1OC
 : -11, 0, -0.3, -1.2, -0.3%, 1
- CCCNC(=O)Nc1cc(OCC)c(N2CCOCC2)cc1OCC
 : 7, 0, 0.2, 3.8, -1.0%, 3
- CCC(C)NC(=O)C(CCSC)NC(=O)c1ccccc1 (configuration not stated)
 : -3, 6, 2.4, -5.5, -0.1%, -2
- Cc1ccc(S(=O)(=O)NCCc2cn3nc(C)c(C)nc3n2)cc1C
 : -1, 1, -0.1, -4.7, -0.1%, 6
- CC(C)C(=O)N1CCN(c2cc(N3CCN(C)CC3)c(F)cc2[N+](=O)[O-])CC1
 : 2, -1, -1.4, -2.1, 0.5%, 20
- CCOc1ccccc1C(=O)NC(C(=O)N(C)c1c(N)n(Cc2ccccc2)c(=O)[nH]c1=O)C(C)C (configuration not stated)
 : 4, 0, 0.4, -2.2, 3.1%, -6
- Cc1sc2nc(CN(C(=O)NCc3ccccc3)C3CCCC3)[nH]c(=O)c2c1C
 : 2, 0, -0.2, -2.4, 0.1%, -18
- O=[N+]([O-])c1ccc2c(c1Nc1ccccc1Cl)=NC1(CCCCC1)N=2
 : -6, 0, 1.4, -1.0, 3.9%, 4
- Cc1cc(C)cc(-n2nnc3ccccc3c2=O)c1
 : 8, 4, 0.6, -4.8, 1.8%, -3
- COc1ccc(C=O)cc1CN1C(=O)c2ccccc2C1=O
 : 3, 1, -0.1, -1.1, 0.5%, 32
- COc1ccc(OC)c(N=C(N)N=C(N)N)c1
 : 0, 0, 0.5, 1.4, -2.2%, -16
- Cc1ccc(Nc2nc(N)c([N+](=O)[O-])c(N3CCC(C)CC3)n2)cc1C
 : 2, 0, 1.7, 4.0, u, -8
- O=C(COC(=O)c1cc([N+](=O)[O-])ccc1N1CCOCC1)NC1CCS(=O)(=O)C1 (configuration not stated)
 : 8, -2, -0.3, -2.8, 3.5%, -14

Continued:
Values run as follows: Six1-Eya2 inh, CtBP-E1A inh, TRPML1 agonist, D2 agonist, PINK1 modulator, TRPML1 blocker
- CCc1ccc(-c2csc3ncn(CC)c(=O)c23)cc1
 : -2, x, 1.3, 1.4, 0.1%, 11
- CC(C)N1CCc2c(sc(NC(=O)Cc3ccccc3)c2C#N)C1
 : 2, -21, 1.5, -6.7, -0.2%, -1
- C/C(CC(=O)Nc1cccnc1)=N\NC(=O)C(=O)NC(C)C
 : 3, x, 3.1, 3.9, 0.8%, -11
- CN(C)CCCNC(=O)C[C@H]1C[C@H](C(=O)N2CCCCC2)[C@@]2(C)c3[nH]c4cc(-c5ccco5)ccc4c3CCN2C1=O
 : 1, 9, 0.8, -0.7, -2.0%, -16
- Cc1ccnc(NC(=O)C2CCN(S(=O)(=O)c3ccc4ccccc4c3)CC2)c1
 : -14, -2, 1.1, 0.0, -0.1%, -6
- CCCCn1cnc2c(SCc3ccc(Br)cc3)nc(N)nc21
 : -2, 3, 1.3, -1.3, 13%, 1
- Cc1ccccc1N(C(=O)c1ccccn1)C(C(=O)NCc1ccccc1)c1ccncc1 (configuration not stated)
 : 9, -9, -0.3, -1.9, 0.0%, -6
- Cc1ccc(CNC(=O)CN2C(=O)COc3ccc(S(=O)(=O)N4CCC(C)CC4)cc32)cc1
 : x, x, -0.8, x, 2.0%, -23
- Cc1ccccc1OCc1nc(-c2ccc(NC(=O)c3ccc4c(c3)OCO4)cc2)no1
 : 0, 16, 0.0, 2.7, -1.3%, -4
- COc1cc(OC)c(NC(=O)CN(C)S(=O)(=O)c2ccc(-c3ccc(=O)[nH]n3)s2)cc1Cl
 : -71*, x, 0.8, 3.3, 1.4%, -19
- O=c1[nH][nH]c(=S)n1C1CCCCC1
 : 4, 1, -0.2, -1.0, 0.2%, 0
